High-throughput results from PubChem BioAssay.
Cruzain Triton – inhibitors of Trypanosoma cruzi cruzain with detergent | P25779 | purified cruzain, Z-FR-AMC fluorescence, 0.01% Triton | Potency, µM, inactives show max response, negative = inhibition, actives largely listed as inhibitors | actives 0.43% (n = 200,000); active = well fitted curve in the direction sought with a large enough effect; inconclusive = small, poorly fitted or top-dose-only effect, or another doubt; inactive = no such curve, though single readings can be large; an effect the other way counts as inactive or inconclusive;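 note: plate controls were neutral wells for no effect and buffer without enzyme for full effect; nearly all actives have a fitted effect of over 40% in size; top concentration of the series not given in the record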
Target sequence (P25779 123-467 limits assumed): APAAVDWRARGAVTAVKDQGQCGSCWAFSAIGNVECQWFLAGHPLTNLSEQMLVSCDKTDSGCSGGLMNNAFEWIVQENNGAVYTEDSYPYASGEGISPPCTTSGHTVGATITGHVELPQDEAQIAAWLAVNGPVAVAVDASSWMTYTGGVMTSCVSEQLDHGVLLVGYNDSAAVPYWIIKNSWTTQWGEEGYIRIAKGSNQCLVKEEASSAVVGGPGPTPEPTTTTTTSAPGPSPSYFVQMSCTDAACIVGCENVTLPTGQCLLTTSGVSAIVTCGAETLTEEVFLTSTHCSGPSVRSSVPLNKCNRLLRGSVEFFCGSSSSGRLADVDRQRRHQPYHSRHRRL
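Steps: dispense cruzain (1.5 nM final) in acetate buffer pH 5.5 with DTT and 0.01% Triton X-100; pin-transfer compounds; incubate 15 min RT; add Z-FR-AMC (2 uM final); read fluorescence every 30 s, using the 60 s intensity change.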
SARS PLpro yeast – inhibitors of SARS-CoV papain-like protease in yeast; S. cerevisiae expressing SARS-CoV PLpro, growth rescue; control for the full effect not named in the record; Potency, µM (doses to about 32.9 µM), inactives show at the highest dose activity, positive = growth rescue; actives 0.19% (n = 330,000); note: 0% is about no effect; nearly all actives have a fitted effect of over 55% in size; growth read by luminescence after 48 h
RE007 growth inh – less growth of the S. pombe RE007 Vpr strain | S. pombe RE007 Vpr strain, BacTiter-Glo ATP luminescence, 24 h; control for the full effect not named in the record | Potency, µM (titrated, usually from 92.2 µM), for inactives: at the top dose activity change, negative = less growth | actives 0.21% (n = 360,000) | AID 651644; active = well fitted falling curve with a large enough effect; inconclusive = small, poorly fitted or top-dose-only effect; inactive = no such curve, though single readings can be large or run the other way;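 note: % is set by controls: 0 for no effect and ±100 for the full control effect; nearly all actives have a fitted effect of over 50% in size; the assay follows cell death caused by Vpr and the record does not say whether a fall means rescue or toxicity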
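Fission yeast RE007 carrying one integrated HIV-1 vpr copy, seeded at OD 0.01 in PMG+AL medium with 23 nL pinned compound. Grown 24 h at 30 degrees; viability read by BacTiter-Glo luminescence after 5 min.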
Cruzain noTriton – inhibitors of Trypanosoma cruzi cruzain without detergent | P25779 | purified cruzain, Z-FR-AMC fluorescence, no detergent | Potency, µM, for inactives: max response, negative = inhibition, actives largely listed as inhibitors | actives 2.3% (n = 200,000); active = well fitted curve in the direction sought with a large enough effect; inconclusive = small, poorly fitted or top-dose-only effect, or another doubt; inactive = no such curve, though single readings can be large; an effect the other way counts as inactive or inconclusive;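 note: plate controls were enzyme without inhibitor for no effect and buffer without enzyme for full effect; nearly all actives have a fitted effect of over 40% in size; top concentration of the series not given in the record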
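Detergent-free condition (0.00005% Triton X-100) in acetate buffer pH 5.5 with DTT. 1.5 nM enzyme and compound were pre-mixed 15 min, then 2 uM Z-FR-AMC substrate added; reaction progress from fluorescence change between first and third reads (60 s).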
NS1 inh – blocks influenza NS1 protein function; AID 2326; S. cerevisiae slowed by influenza A NS1, growth recovery by OD600; Potency, µM (doses to about 46.1 µM), without a hit: top-dose activity, positive = more growth; actives 0.4% (n = 270,000); note: actives are rising curves; nearly all actives have a fitted effect of over 50% in size
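Growth recovery, yeast-based: influenza A NS1 expressed in S. cerevisiae causes slow growth, and suppressors are detected by OD600. The parent strain without NS1 is used as positive control.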
LASV entry inh – inhibitors of Lassa virus binding or cell entry; Lassa virus pseudotype entry inhibition, cell reporter; control for the full effect not named in the record; Potency, µM (highest dose often 37.9 µM), inactives show at the highest dose activity change, negative = inhibition, usual class: inhibitors; actives 1.2% (n = 300,000); AID 540256; active means well fitted inhibition curve with a large enough effect; inconclusive means small, poorly fitted or top-dose-only effect, or effect the other way; inactive means flat fitted curve, though single readings scatter; tested in HEK293 cells; note: % is set by controls: 0 for no effect and ±100 for the full control effect; nearly all actives have a fitted effect of over 50% in size; luciferase read-out
Marburg entry inh – inhibitors of Marburg virus binding or cell entry; Marburg virus pseudotyped entry inhibition, cell reporter; control for the full effect not named in the record; about a third of the inactives were read at about 46 µM; Potency, µM (doses to about 37.8 µM), without a hit: at the top dose activity change, negative = inhibition, actives largely listed as inhibitors; actives 1.8% (n = 300,000); AID 540276; active = well fitted inhibition curve with a large enough effect; inconclusive = small, poorly fitted or top-dose-only effect, or effect the other way; inactive = flat fitted curve, though single readings scatter; tested in HEK293 cells; about a fifth of its hits are not listed in these tables; note: % is set by controls: 0 for no effect and ±100 for the full control effect; luciferase read-out
StopGo reporter – FMDV 2A StopGo reporter, luciferase signal | human cells with a luciferase reporter of 2A StopGo recoding; control for the full effect not named in the record | Potency, µM (series often up to 57.9 µM), for the others: at the highest dose signal change, negative = less light | actives 1.2% (n = 410,000); active = well fitted falling curve with a large enough effect; inconclusive = small, poorly fitted or top-dose-only effect; inactive = no such curve, though single readings can be large or run the other way; tested in HEK293T cells; note: % is set by controls: 0 for no effect and ±100 for the full control effect; nearly all actives have a fitted effect of over 45% in size; luciferase light after 4 h
The depositor's hits bear a star; ? = inconclusive; / = no result given; & = joins results of further samples; [ ] = remark or other dose. Unless noted, calls come from the whole dose curve; as a rule, active means well fitted rising curve with a large enough effect; inconclusive means small, poorly fitted or top-dose-only effect; inactive means no such curve, though single readings can be large or run the other way. Potency is the fitted concentration of half-maximal effect.

SMILES	Cruzain Triton	SARS PLpro yeast	RE007 growth inh	Cruzain noTriton	NS1 inh	LASV entry inh	Marburg entry inh	StopGo reporter
Cc1ccc(C(=O)NC(C)c2ccccc2)cc1S(=O)(=O)N1CCOCC1 (configuration not stated)	/	-2%	3%	/	-5%	?	-16%	-7%
O=C1CCCC(O)=C1C=NCCc1ccccc1	7.1%	7%	-1%	1%	-12%	13%	23%	4%
COc1ccc(-n2nnnc2SCC(=O)Nc2ccccc2N2CCOCC2)cc1	/	-1%	-14%	/	-5%	-15%	?	-11%
COc1ccc(S(=O)(=O)N2CCN(C(=O)[C@@H]3CCCN3C(=O)c3cccs3)CC2)cc1	/	2%	12%	/	/	1%	21%	-5%
O[Si](CCCN1CCCCC1)(c1ccc(F)cc1)C1CCCCC1 (configuration not stated)	2.9%	-1%	-13%[18.4 µM]	6%	-12%	5.2µM*	2.8µM*	?
CCn1c(=O)cc(SCC(=O)NCCc2ccc(Cl)cc2)c2ccccc21	0.5%	/	/	?	/	21%[46.1 µM]	-8%[46.1 µM]	-4%
CCN1/C(=C2/SC(=S)N(C)C2=O)C=Cc2cc(C)ccc21	/	/	3%	/	/	24%	-1%[46.1 µM]	5%
CC(=O)c1ccc(NC(=O)c2ccc(COc3ccccc3[N+](=O)[O-])o2)cc1	-1.7%	14%	-17%	-8%	-4%	?	?	-7%
COc1ccc(/C(C)=N/NC(=O)c2nnn(-c3nonc3N)c2CN(C)c2ccccc2)cc1	/	-1%	7%	/	8%	/	/	-10%
O=C(Nc1nnc(-c2cccs2)o1)c1ccco1	-3.0%	0%	-6%	2%	-131%	/	/	20%
COc1ccccc1OCC(=O)NNC(=S)NC(=O)c1ccco1	2.8%	-6%	9%	14%	-156%	-3%	1%	-17%
CC(Oc1cccc(Cl)c1)C(=O)Nc1cc(S(=O)(=O)N2CCCCC2)ccc1N1CCOCC1 (configuration not stated)	/	/	4%	/	/	?	?	0%
COc1ccc(CN2CCNC(=O)C2CC(=O)N(C)C2CCOCC2)c(F)c1 (configuration not stated)	/	6%	2%	/	2%	10%	16%	0%
Cc1ccc(NC(=O)Cc2ccc(-c3ccccc3)cc2)nc1	/	-6%	-9%	/	-2%	-11%[46.1 µM]	15%[46.1 µM]	-8%
COc1ccc2oc(C(F)(F)C(F)(F)F)cc(=O)c2c1	0.6%	21%	3%	-3%	0%	?	0%	-11%
O=C(CCc1nnc2ccc(NCc3ccccc3Cl)nn12)NC1CCCC1	/	-1%	-7%	/	6%	/	/	-15%
COC(=O)c1cc(C(=O)OC)cc(N2C(=O)CC(NNC(=O)c3ccccc3Cl)C2=O)c1 (configuration not stated)	-0.3%	2%	3%	-11%	12%	9%	?	-5%
CCc1ccc2[nH]c(=O)c(C(c3nnnn3CCOC)N3CCN(c4ccccc4F)CC3)cc2c1 (configuration not stated)	-5.6%	1%	1%	13%	8%	-12%	?	-20%
O=C(CCC(=O)Nc1nnc(C2CCCCC2)s1)NCc1cccs1	6.1%	9%	3%	?	6%	-1%	13%	0%
COc1cc(C(=O)NCC(c2cccs2)S(=O)(=O)c2ccc(F)cc2)cc(OC)c1OC (configuration not stated)	-1.5%	/	/	?	/	?	/	-21%
CC(C)c1cc(C(=O)N/N=C/c2ccco2)n[nH]1	-3.6%	-11%	6%	3%	8%	5%	?	28%
O=C(CN(Cc1ccc2c(c1)OCO2)C(=O)c1cnsn1)NC1CCCC1	-3.4%	0%	4%	1%	-3%	3%	-3%	-21%
O=c1c2ccccc2oc2cc(OCc3cccc(F)c3)cc(O)c12	/	1%	2%	/	-2%	22%	-19%	-22%
O=C(CSC1=NS(=O)(=O)c2cc(F)ccc2N1)NCc1ccccc1Cl	/	2%	2%	/	/	-1%	-5%	38%[activator]
O=C(N/N=C/c1ccccc1OC(=O)N1CCOCC1)c1cccs1	/	-5%	4%	/	/	11%	18%[46.1 µM]	38%[activator]

2 of these compounds in a different format.
Results follow in this order: Cruzain Triton, SARS PLpro yeast, RE007 growth inh, Cruzain noTriton, NS1 inh, LASV entry inh, Marburg entry inh, StopGo reporter
COc1ccc2oc(C(F)(F)C(F)(F)F)cc(=O)c2c1
 : 0.6%, 21%, 3%, -3%, 0%, ?, 0%, -11%
COc1ccc(-n2nnnc2SCC(=O)Nc2ccccc2N2CCOCC2)cc1
 : /, -1%, -14%, /, -5%, -15%, ?, -11%

More records follow:
SMILES	Cruzain Triton	SARS PLpro yeast	RE007 growth inh	Cruzain noTriton	NS1 inh	LASV entry inh	Marburg entry inh	StopGo reporter
NC(=O)C1CCCN(C(=O)c2ccc(NC(=O)c3cccs3)cc2)C1 (configuration not stated)	/	-7%	5%	/	/	15%	-21%	-3%
O=[N+]([O-])c1ccc(N2CCCCC2)c(Cl)c1N1CCCCC1	5.8%	-4%	13%	-20%	3%	-1%	-27%	-5%
Cc1c(OCC(=O)NCCCN2CCOCC2)ccc2c1oc(=O)c1ccccc12	/	-10%	-5%	/	-20%	/	/	-5%
COc1ccc(OC)c(NC(=O)COC(=O)CCCN2C(=O)c3ccccc3C2=O)c1	-5.5%	-8%	6%	-8%	-20%	16%	-3%	0%
Cc1cc(C)c(S(=O)(=O)NCC(=O)NCc2ccccn2)c(C)c1	/	1%	-9%	/	1%	?	?	23%
CCOC(=O)/C=C/C(=O)Nc1ccc(Oc2ccccc2)cc1	/	-1%	47%	/	-42%	-21%	8%	?
COc1ccc(NC(=O)NCCc2c(C)nn(C)c2C)c(OC)c1	0.6%	/	/	0%	/	9%[46.1 µM]	/	5%
CC(C)C(=O)Nc1cccc(C(=O)Nc2nnc(C(C)(C)C)s2)c1	5.3%	?	6%	2%	-5%	18%	0%	2%
Cc1nc2ncnn2c(C)c1Cc1cccc(C(F)(F)F)c1	/	1%	1%	/	/	17%	1%	-24%
COc1ccc(NC(=S)N2CCC(c3nc4ccccc4o3)CC2)c(OC)c1	/	2%	-4%	/	/	-9%[46.1 µM]	?	-9%
CCC1(c2ccccc2)SC(N)=NC1=O (configuration not stated)	/	/	-14%	/	/	3%[46.1 µM]	1%	-20%
CCc1ccc(NC(=O)COC(=O)CCCC2=NS(=O)(=O)c3ccccc3N2)cc1	-0.2%	-2%	1%	3%	/	?	11%&11%[46.1 µM]	-8%&1%
COc1ccc2[nH]c(C(=O)NCc3ccccc3)cc2c1	/	0%	-1%	/	-1%	?	-17%[46.1 µM]	14%
COc1ccc(N=Cc2c[nH][nH]c2=O)cc1	-2.7%	-10%	-3%	2%	-91%	1%	0%	15%
COCCn1nnnc1C(c1ccc(OC)cc1OC)N1CCN(c2ccccc2)CC1 (configuration not stated)	7.0%	3%	-6%	?	-9%	8%	?	-15%
CCCNC(=O)COC(=O)c1ccccc1C(=O)N(C)C1CCCCC1	-0.8%	9%	-2%	-9%	22%	-15%	19%	0%
COC(=O)c1cc(NC(=O)c2cc(C)oc2C)cc(C(=O)OC)c1	-5.6%	-4%	21%	20%	4%	?	?	-16%
O=C(NCCCN1CCN(CCCNC(=O)c2cccc(Cl)c2)CC1)c1cccc(Cl)c1	-5.3%	-2%	0%	2%	-5%	-21%	?	-20%
CC(=O)Nc1ccc(S(=O)(=O)NC2CCCCCC2)cc1	/	5%	4%	/	4%	?	?	28%
O=C1CC2(CCN(C(=O)COc3ccccc3)CC2)Oc2ccccc21	/	4%	14%	/	/	1%	0%[46.1 µM]	-22%
C=CCNC(=O)c1cc2c(=O)n3cc(C)ccc3nc2nc1NCC1CCCO1 (configuration not stated)	22µM*	22%	/	?	-2%	/	/	/
COc1cc(OC)cc(C(=O)NNC(=S)NC2CC2)c1	/	0%	-2%	/	-3%	4%	-4%[46.1 µM]	-2%
COc1ccc(CC(NC(C)=O)C(=O)NC2CCN(c3nc(C)cc(C)c3C#N)CC2)c(OC)c1 (configuration not stated)	-4.5%	?	-14%	?	-19%	2%	7%	-16%
O=S(=O)(Nc1nc2ccccc2nc1NCC1CCCO1)c1ccc(F)cc1 (configuration not stated)	/	0%	-10%	/	-8%	-7%[46.1 µM]	17%[46.1 µM]	47%[activator]
COc1ccccc1CNC(=O)C(CCSC)NS(=O)(=O)c1ccc2c(c1)oc(=O)n2C (configuration not stated)	4.8%	-4%	-6%	-10%	-8%	7%	13%&13%	-9%
COc1ccccc1NC(=O)COc1ccccc1C(=O)Nc1ccccc1	/	-3%	-1%	/	-6%	-1%	?	-22%
O=C(O)COc1ccccc1/C=N/NC(=O)Cc1csc(Nc2cccc(C(F)(F)F)c2)n1	/	-7%	-25%	/	/	-15%	24%[46.1 µM]	-9%
O=[N+]([O-])c1cccnc1NCCc1c[nH]c2ccccc12	/	0%	-1%	/	-3%	/	/	54%[activator]
Cc1cc(C)nc(SCC(=O)c2ccc3c(c2)OCCO3)n1	1.5%	4%	-5%	-4%	-6%	16%	-2%	/

Shown bar-delimited: entries from further up.
Structure | Cruzain Triton | SARS PLpro yeast | RE007 growth inh | Cruzain noTriton | NS1 inh | LASV entry inh | Marburg entry inh | StopGo reporter
COc1cc(C(=O)NCC(c2cccs2)S(=O)(=O)c2ccc(F)cc2)cc(OC)c1OC (configuration not stated) | -1.5% | / | / | ? | / | ? | / | -21%
CC(C)c1cc(C(=O)N/N=C/c2ccco2)n[nH]1 | -3.6% | -11% | 6% | 3% | 8% | 5% | ? | 28%
O=C(CN(Cc1ccc2c(c1)OCO2)C(=O)c1cnsn1)NC1CCCC1 | -3.4% | 0% | 4% | 1% | -3% | 3% | -3% | -21%
O=c1c2ccccc2oc2cc(OCc3cccc(F)c3)cc(O)c12 | / | 1% | 2% | / | -2% | 22% | -19% | -22%
O=C(CSC1=NS(=O)(=O)c2cc(F)ccc2N1)NCc1ccccc1Cl | / | 2% | 2% | / | / | -1% | -5% | 38%[activator]
O=C(N/N=C/c1ccccc1OC(=O)N1CCOCC1)c1cccs1 | / | -5% | 4% | / | / | 11% | 18%[46.1 µM] | 38%[activator]
NC(=O)C1CCCN(C(=O)c2ccc(NC(=O)c3cccs3)cc2)C1 (configuration not stated) | / | -7% | 5% | / | / | 15% | -21% | -3%
